Screening results: PubChem, National Center for Advancing Translational Sciences (NCATS)
CtBP-E1A inh = qHTS Assay for Inhibitors of the CtBP/E1A Interaction. CtBP / adenovirus E1A interaction (AlphaScreen). AlphaScreen GST-E1A/His-CtBP binding, 1536-well; active compounds read low; control for the full effect not named in the record. activity change, % (no concentration beside the values). actives 0.49% (n = 340,000). AID 651724, 2012; in the data active means activity change below about -65%; inconclusive means about -30% to -65%; inactive means above about -30%; further: on the % scale 0 is the no-effect control and ±100 the full control effect
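AlphaScreen with 125 nM GST-E1A and 125 nM His-CtBP (5X stocks) in Tris pH 8.0, 300 mM NaCl, BSA, Tween 20, TCEP. Compounds preincubated 2 h at 37 deg C, then glutathione donor/nickel acceptor beads added for 1 h at 37 deg C in dark.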
D2 potentiator = Beta-Arrestin HTS for Positive Allosteric Modulators of the Human D2 Dopamine Receptor: Potentiators. D(2) dopamine receptor (Homo sapiens), P14416. DiscoveRx D2 beta-arrestin cells, luminescence, 90 min; 100% = 57 uM dopamine signal. potentiation, % (test concentration not listed). actives 0.23% (n = 360,000). AID 624464, 2012; active = potentiation of 50% or more; inconclusive = 30% to 50%; inactive = 30% or less;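 further: compound concentration not given in the record; tested on top of an EC20 dose of dopamine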
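D2 cells co-treated with compound plus 50 nM dopamine (EC20) for 90 min at 37 deg C to detect potentiation. Beta-arrestin recruitment was read as enzyme-fragment luminescence after 1 h at ambient temperature. Full response was set by 57 uM dopamine.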
Six1-Eya2 blk = qHTS Assay for Inhibitors of the Six1/Eya2 Interaction; AlphaScreen GST-Six1/His-Eya2 binding, biochemical; active compounds read low; control for the full effect not named in the record; Homeobox protein SIX1 (Homo sapiens) + Protein phosphatase EYA2 (Homo sapiens), …; activity change, % (concentration not given with the values); actives 0.56% (n = 360,000); in the data active = activity change below about -65%; inconclusive = about -30% to -65%; inactive = above about -30%; further: on the % scale 0 is the no-effect control and ±100 the full control effect
Target sequence (O00167 whole entry, looked up): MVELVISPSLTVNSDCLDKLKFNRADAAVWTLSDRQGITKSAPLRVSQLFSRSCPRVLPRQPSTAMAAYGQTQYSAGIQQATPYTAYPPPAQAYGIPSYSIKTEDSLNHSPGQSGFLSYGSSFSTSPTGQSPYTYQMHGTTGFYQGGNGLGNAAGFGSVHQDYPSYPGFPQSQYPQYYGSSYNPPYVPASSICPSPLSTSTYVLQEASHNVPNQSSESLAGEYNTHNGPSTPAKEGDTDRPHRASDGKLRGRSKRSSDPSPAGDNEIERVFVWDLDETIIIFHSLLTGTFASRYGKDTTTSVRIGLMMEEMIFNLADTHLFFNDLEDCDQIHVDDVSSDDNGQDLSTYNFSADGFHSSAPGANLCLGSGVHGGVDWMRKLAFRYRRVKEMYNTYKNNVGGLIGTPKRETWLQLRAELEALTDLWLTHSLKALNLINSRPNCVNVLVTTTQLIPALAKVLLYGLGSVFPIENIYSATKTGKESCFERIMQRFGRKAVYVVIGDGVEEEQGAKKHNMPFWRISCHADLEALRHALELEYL
Target sequence (Q15475 whole entry, looked up): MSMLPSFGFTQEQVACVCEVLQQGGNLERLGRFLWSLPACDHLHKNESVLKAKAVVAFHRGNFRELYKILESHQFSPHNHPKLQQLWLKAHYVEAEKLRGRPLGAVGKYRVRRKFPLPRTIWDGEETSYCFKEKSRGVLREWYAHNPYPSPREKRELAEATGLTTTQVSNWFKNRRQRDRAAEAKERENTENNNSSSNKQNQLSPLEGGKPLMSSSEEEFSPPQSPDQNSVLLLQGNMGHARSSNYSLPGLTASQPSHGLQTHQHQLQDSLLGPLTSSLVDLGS
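Six1/Eya2 binding was read as AlphaScreen signal after compounds were pinned into GST-Six1 plus His-tagged Eya2 (5X stock 250/500 nM) in pH 8.0 Tris/NaCl/TCEP buffer, beads added, then incubated 1 h, 37 C, dark.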
PINK1 modulator = A Quantitative High throughput Screen to Identify Chemical Modulators of PINK1 Expression; PINK1 immunofluorescence, high-content cytometry, 24 h; Potency, µM (titrated, usually from 76.6 µM), inactives show at the highest dose activation (PINK1 increase), usual class: activators; actives 0.2% (n = 410,000); AID 624263, 2012; active = well fitted activation curve with a large enough effect; inconclusive = small, poorly fitted or top-dose-only effect; inactive = flat fitted curve, though single readings scatter; cell line not stated here;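 further: potency means the concentration at half of the fitted maximal effect; % of control where 0% means no effect; nearly all actives have a fitted effect of over 65% in size; a mitochondrial uncoupler was the plate control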
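Decision-based qHTS: stable cells, 24 h exposure to five compound concentrations, CCCP as control. Fixed cells stained for PINK1 plus nuclear, mitochondrial and cell markers, cytometer read.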
D2 ag = Beta-Arrestin HTS for Positive Allosteric Modulators of the Human D2 Dopamine Receptor: Agonists; activation, % (concentration not given with the values); DiscoveRx PathHunter D2 beta-arrestin, luminescence, 90 min; 100% = 57 uM dopamine signal; actives 0.084% (n = 360,000); in the data active = activation above about 40%; inconclusive = about 15% to 40%; inactive = below about 15%; further: compound concentration not given in the record; the text of the record calls up to 30% inactive
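Agonist mode: compounds alone added to overnight-plated D2 PathHunter cells for 90 min at 37 C, with 57 uM final dopamine (EC100) defining full response. Beta-arrestin recruitment detected by chemiluminescent reagent, read after 1 h at ambient temperature.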
TRPML1 agonist = qHTS for Agonists of the Human Mucolipin Transient Receptor Potential 1 (TRPML1); Mucolipin-1 (Homo sapiens), Q9GZU1; TRPML1-expressing cells, Ca2+ dye fluorescence, FDSS; host cell line not named in the record; reference of the full effect not given here; activation, % (concentration not given with the values); actives 0.12% (n = 410,000); AID 624414, 2012; in the data active = activation above about 50%; inconclusive = about 30% to 50%; inactive = below about 30%; further: 0% is about no effect; the text of the record puts the active cut at 80%
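Kinetic FDSS Ca2+ read in Tet-induced TRPML1-DL cells (ABD Ca8 dye plus quencher, 45-90 min RT loading): baseline, then compound, then 110 s agonist window; EC80 agonist 54-4 at 4uM final added afterwards for a 110 s antagonist window.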
* hit, by the source's call; u = inconclusive; x = not tested or not shown; [ ] = another dose, or the depositor's remark. Hits appear at their usual frequency (roughly 1.3% active in at least one column).

SMILES | CtBP-E1A inh | D2 potentiator | Six1-Eya2 blk | PINK1 modulator | D2 ag | TRPML1 agonist
COc1ccc(S(=O)(=O)N2Cc3ccccc3CC2C(=O)Nc2ccc(O)cc2)cc1OC (stereo not given) | -2 | -1 | 1 | 0.8% | -1.2 | -0.9
CCSc1nnc2c3cc(CC)ccc3n(C)c2n1 | x | -7 | 22 | 3.7% | -4.8 | x
CCC(C(N)=O)N1C(=O)C2C3CCC(C3)C2C1=O (stereo not given) | 7 | -1 | 0 | 0.4% | -2.0 | 0.0
Cc1cccc(N(C(=O)c2ccco2)C(C(=O)NC2CCCC2)c2cccnc2)c1C (stereo not given) | 5 | -4 | 9 | -1.1% | 2.2 | -0.5
CC(C)[C@H](NC(=O)[C@@H]1CSC2c3ccccc3C(=O)N21)C(=O)NCc1ccco1 (stereo not given in full) | -6 | -8 | 0 | -0.9% | 4.0 | 1.5
CCn1c(O)c(C=NCc2cccs2)c(=O)n(CC)c1=S | 0 | -4 | -2 | -1.0% | -1.9 | 0.6
CCOc1ccc(S(=O)(=O)N2CC(=O)Nc3ccccc32)cc1 | 2 | 1 | 9 | 4.7% | -0.8 | -1.1
CN(CCC1CCOCC1)C(=O)CC1C(=O)NCCN1C/C=C/c1ccccc1 (stereo not given) | 4 | -1 | 3 | -0.7% | 3.1 | -0.5
CCOC(=O)Cc1csc(NC(=O)CSc2ncnc3c2cnn3-c2ccc(OC)cc2)n1 | 7 | 6 | -4 | 7.0% | 3.1 | 1.0
C[C@@H]1CCCCO[C@@H](CN(C)C(=O)Cc2ccccc2)[C@@H](C)CN([C@H](C)CO)C(=O)c2cc(N(C)C)ccc2O1 | -14 | -5 | 4 | 5.2% | -2.7 | -0.3
COc1cccc(-c2cnc3c(NC=O)cc(-c4ccncc4)cn23)c1 | 4 | -4 | -9 | 0.0% | 4.6 | 13
O=c1c2c3c(sc2n(CCN2CCCCC2)c(=O)n1Cc1ccco1)CCCCC3 | -29 | -20 | u | -1.3%[38.3 µM] | -0.9 | 1.4
COCC(=O)Nc1ccc2c(c1)[C@@H]1C[C@H](CC(=O)NCc3cccc(F)c3)O[C@@H](CO)[C@@H]1O2 | 6 | 0 | -2 | -2.2% | -1.2 | -0.3
COc1ccc(OC)c(NC(=O)C2CCC(CNc3c(N4CCOCC4)c(=O)c3=O)CC2)c1 (stereo not given) | -6 | -5 | -12 | 0.4% | -0.1 | -0.2
O=C(NCc1ccc2c(c1)OCO2)c1cccc(S(=O)(=O)N2CCCC2)c1 | -5 | -26 | 5 | 1.1% | -0.2 | 0.5
Nc1cc(S(=O)(=O)c2ccc(N3CCCCC3)c(N)c2)ccc1N1CCCCC1 | -2 | -7 | -18 | 7.3% | 0.0 | -0.7
Cc1ccc(C(=O)Nc2nnc([C@H]3C[C@H](O)[C@@H](CO)O3)s2)cc1 | 7 | -15 | 3 | 1.6% | -6.3 | -0.6
O=C(CCCN1C(=O)c2ccccc2C1=O)Oc1ccc(F)cc1 | 1 | -3 | 2 | -0.1%[38.3 µM] | 0.2 | 0.6
COc1cc(NC(=O)C23CC4CC(C2)CC(n2nnc(C)n2)(C4)C3)c(OC)cc1Cl | 4 | 6 | -1 | 6.0% | -0.4 | 0.1
O=C(NC1CCCCCC1)c1ccc(Cl)c(S(=O)(=O)N2CCOCC2)c1 | 1 | -5 | -9 | 1.6% | 3.0 | -0.4
S=c1[nH]nc2sc3ccccc3n12 | -3 | -18 | -6 | 1.3% | -1.7 | -0.6
CS(=O)(=O)N(Cc1ccccc1)c1ccc(C(=O)NN=C2CCCCCC2)cc1 | -1 | 11 | 0 | 6.1% | 1.2 | -0.6
COc1ccc(N=C2SCC(c3ccc([N+](=O)[O-])cc3)=NN2CCO)cc1 | u | 9 | u | -1.6% | 7.5 | -0.3
COC(=O)c1ccc(OCC(O)CN2CCN(CC(O)COc3ccc(C(=O)OC)cc3)CC2)cc1 (stereo not given) | x | -4 | 23 | 1.1% | -1.8 | 0.8
O=C(CSc1nc2ccccc2o1)NC(=O)NCc1ccccc1 | 6 | -9 | -3 | -0.1% | -7.9 | -0.3

Shown as labelled records: entries from further up
C[C@@H]1CCCCO[C@@H](CN(C)C(=O)Cc2ccccc2)[C@@H](C)CN([C@H](C)CO)C(=O)c2cc(N(C)C)ccc2O1
- CtBP-E1A inh: -14
- D2 potentiator: -5
- Six1-Eya2 blk: 4
- PINK1 modulator: 5.2%
- D2 ag: -2.7
- TRPML1 agonist: -0.3
COc1cccc(-c2cnc3c(NC=O)cc(-c4ccncc4)cn23)c1
- CtBP-E1A inh: 4
- D2 potentiator: -4
- Six1-Eya2 blk: -9
- PINK1 modulator: 0.0%
- D2 ag: 4.6
- TRPML1 agonist: 13

(listing goes on)
SMILES | CtBP-E1A inh | D2 potentiator | Six1-Eya2 blk | PINK1 modulator | D2 ag | TRPML1 agonist
O=C1CN(C(=O)COC(=O)Cc2ccccc2F)c2ccccc2N1 | x | -7 | 9 | 0.2% | -1.2 | 0.4
CCn1c(=O)c(C(C)=O)nc2ccccc21 | 19 | -8 | -1 | 3.1% | -3.7 | -0.9
O=C(N/N=C1/CCS(=O)(=O)c2ccc(F)cc21)c1ccccn1 | u | -1 | u | -0.8% | 6.1 | -0.3
Oc1cc(-c2ccccc2)c2ccccc2c1 | 2 | 30 | -6 | -0.4% | 45* | 0.8
CCN1C(=O)[C@H]2[C@H]3CN=C(SCC4CC4)N3[C@@](CC)(C(=O)OC)[C@H]2C1=O | -7 | -6 | 1 | -0.9% | -1.1 | 1.6
Cn1cccc1/C=C1\SC(=Nc2cccc(O)c2)NC1=O | 2 | -9 | -26 | 9.0% | 1.0 | -0.1
COC(=O)C1=C(C)NC(C)=C(C(=O)OC)C1C(=O)OCC(=O)Nc1ccc(C(C)=O)cc1 | 8 | -6 | 14 | 0.4% | -3.9 | 0.7
COC(=O)CNC(=O)C(Cc1c[nH]c2ccccc12)NC(=O)OC(C)(C)C (stereo not given) | 7 | -10 | -6 | 8.5% | -1.0 | -0.7
O=C(NNS(=O)(=O)c1ccccc1)c1cccc(F)c1 | x | 22 | 4 | 0.5% | -1.5 | x
O=c1[nH]nc(-c2ccc(OCc3ccc(Cl)cc3Cl)cc2)o1 | 2 | -10 | 2 | 0.9% | -4.7 | 0.2
COc1ccc(OC)c(CNC(=O)C2CCN(S(=O)(=O)N3CCC(C)CC3)CC2)c1 | 0 | 9 | 0 | 0.4% | -3.7 | -0.7
CC(=O)n1nc(-c2cccnc2)nc1NCc1cccs1 | 4 | 1 | 2 | 1.0% | -2.4 | x
C=CCC(=O)N1CCCC(C(=O)c2ccc(Cl)cc2)C1 (stereo not given) | -1 | -3 | 4 | -0.2% | -4.8 | 0.1
CC(=O)Nc1cccc(NC(=O)COc2ccc3c(c2)OCO3)c1 | -15 | -7 | -5 | 1.0% | 2.5 | 1.3
C=CCn1c(CCC(O)COCCCCC)n[nH]c1=S (stereo not given) | -3 | -13 | 4 | 1.7% | 0.1 | 0.1
Cc1nn(Cc2c(Cl)cccc2Cl)c(C)c1NC(=O)c1cnn2c(C(F)F)cc(-c3ccccc3)nc12 | 1 | -3 | -5 | 9.2% | -2.5 | -0.4
CC(=O)Nc1ccc(NC(=O)c2cc(=O)c3cc(C)c(C)cc3o2)cc1 | x | -10 | 8 | 0.7% | -4.2 | 0.3
CSc1nc(O)c(C(c2ccc(OC(C)C)cc2)c2c(O)nc(SC)[nH]c2=O)c(=O)[nH]1 | 5 | -9 | -9 | 0.2% | 2.5 | -0.2
Cc1nn(Cc2noc(C(=O)NCc3ccc4c(c3)OCO4)n2)c(C)c1Br | 0 | -1 | -28 | 4.6% | -4.5 | -1.4
CC(C)(C)OC(=O)C[C@@H]1C/C=C\C[C@@H](CC(=O)N(CCO)Cc2ccccc2)C(=O)N[C@@H](c2ccccc2)COC1=O | -22 | -4 | -8 | -0.6% | 2.2 | 0.1
C=CCn1c(SCC(=O)c2cccs2)nnc1-c1cccc(OC)c1 | 9 | -2 | 1 | x | 1.5 | 0.1
Cc1cnc(CNC(=O)c2ccc3oc(Cc4ccc(Cl)cc4)nc3c2)cn1 | -8 | -7 | -5 | 0.1% | -1.1 | 3.0
O=C(O)c1ccccc1NS(=O)(=O)c1ccc(NN=Cc2cccc(Cl)c2)c([N+](=O)[O-])c1 | -24 | -1 | 0 | 4.5% | 6.6 | 1.4
O=C(CNC(=O)N1CC(=O)Nc2ccccc21)NCCc1c[nH]c2ccccc12 | -10 | -7 | 4 | 0.5% | -4.1 | x
COc1cccc(CNC(=O)C(C(=O)NCc2cccc(OC)c2)c2ncc(C(F)(F)F)cc2Cl)c1 | 0 | -4 | 3 | 7.5% | 8.0 | 0.9

(listing goes on)
SMILES | CtBP-E1A inh | D2 potentiator | Six1-Eya2 blk | PINK1 modulator | D2 ag | TRPML1 agonist
Cn1c2ccccc2c2nnc(SCC(=O)Nc3cccc(C(=O)O)c3)nc21 | u | -7 | -67* | -1.9% | -3.5 | 0.7
Cc1ccc(N(C(=O)C2CCCC2)C2C=CS(=O)(=O)C2)cc1C (stereo not given) | 7 | -9 | 6 | x | -1.2 | -0.1
CC1(C(=O)NCc2ccco2)Cc2c(-c3cccc(C(F)(F)F)c3)ccnc2O1 (stereo not given) | -4 | -1 | -9 | 5.1% | -1.8 | -1.1
Cc1ccc2[nH]c3nc(NN)nnc3c2c1 | u | -8 | u | 6.2% | 15 | 0.0
CCN(C[C@H]1N[C@@](Cc2ccccc2)(C(=O)OC)[C@H]2C(=O)N(C)C(=O)[C@@H]12)S(=O)(=O)c1ccc(C(C)(C)C)cc1 | 4 | -1 | 3 | 1.1% | -2.9 | -1.1
CCC(C)c1ccc(OCC(=O)Nc2cccc(C(=O)Nc3ccc(C(=O)O)cc3)c2)cc1 (stereo not given) | 3 | -12 | -1 | 3.0% | 2.8 | -0.1
CC(C)Sc1nc2c(c(=O)n1C)SC(C)C2 (stereo not given) | 0 | 0 | -3 | 0.3% | 5.0 | -0.3
CSc1ccc(/C=C/C(=O)OCC(=O)N2CCN(c3ccccc3)CC2)cc1 | 28 | -9 | 10 | 0.4% | 0.8 | -0.1
OC[C@@H]1CN(Cc2ccc(F)cc2)C[C@H](n2cnc3c(NCc4ccncc4)ncnc32)O1 | 4 | -1 | -20 | 1.3% | -2.9 | -0.2
CC(C)NC(=O)Nc1ccc2c(c1)C(=O)N([C@@H](C)CO)C[C@@H](C)[C@@H](CN(C)S(=O)(=O)c1ccc(F)cc1)O2 | 4 | -9 | 10 | 1.6% | -1.1 | -0.5
Cc1cc(NC(=O)CN2C(=O)NC3(CCCCC3)C2=O)no1 | 7 | -1 | 2 | 1.5% | 6.4 | -0.7
